UUG fidelity: modulators of yeast start codon fidelity, primary screen, whole organism, S. cerevisiae, single point, plate reader | actives 0.13% (n = 350,000) | S. cerevisiae UUG-firefly luciferase reporter, luminescence/redox ratio | activity score, % at 18.7 µM;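 active means replicate mean at a twofold rise or more, about +100% in these data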;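 further: firefly luciferase made from a UUG start codon reports start codon fidelity; reporter light over untreated wells divided by growth signal over untreated wells; some hits fall short of that in this replicate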
Rce1 inhib: yeast Rce1p protease inhibitors, primary screen, biochemical, fluorescence, cell-free homogeneous; calls only; CAAX prenyl protease 2 (Saccharomyces cerevisiae (strain ATCC 204508 / S288c)), Q03530; yeast membranes, quenched prenylated peptide cleavage fluorescence; actives 0.27% (n = 290,000);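 active means fall in fluorescence gain of 50% or more versus controls, with final raw signal at or below 3038400; inconclusive means same 50% fall but final raw signal above 3038400; inactive means fall in fluorescence gain under 50%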;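 further: plate controls were neutral control wells for no effect and wells lacking membranes for full effect; tested at 10 µM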
Target sequence (Q03530 whole entry, looked up): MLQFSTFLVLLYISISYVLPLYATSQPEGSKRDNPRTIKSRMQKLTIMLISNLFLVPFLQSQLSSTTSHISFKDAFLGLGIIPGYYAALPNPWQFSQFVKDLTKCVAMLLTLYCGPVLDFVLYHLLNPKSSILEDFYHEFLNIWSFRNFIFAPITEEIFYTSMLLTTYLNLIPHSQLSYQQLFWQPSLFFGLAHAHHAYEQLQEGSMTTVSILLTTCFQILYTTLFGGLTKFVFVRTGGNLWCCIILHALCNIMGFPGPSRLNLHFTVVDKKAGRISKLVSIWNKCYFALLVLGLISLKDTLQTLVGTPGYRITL
eIF4H inh: human eIF4H binding inhibitors, primary screen, translation initiation inhibitor project, biochemical, uHTS, fluorescence polarization. eIF4H fluorescence polarization binding assay. AID 2012, 2009. inhibition, % at 35 µM. Eukaryotic translation initiation factor 4H (Homo sapiens), Q15056. actives 0.94% (n = 290,000);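 active means 50% or more with normal probe brightness, or confirmed in later tests; inconclusive means above 50% with abnormal brightness, or retests that disagree; inactive means below 50% or failed in later tests; about a fifth of its hits are not listed in these tables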;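 further: calls also rest on retests at 20 µM and on dose response follow-up; 0% = protein and probe with vehicle and 100% = probe without protein; strong numbers were not always called active; many hits fall short of the cut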
CSC inhib: cancer stem cell viability inhibitors, primary screen, luminescence. cancer stem cell-like cells viability. inhibition, % at 7.5 µM. actives 1.1% (n = 300,000);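 active means mean at 75% or more and at least half the replicates too; inconclusive means mean and replicates disagree; tested in HMLE shEcad cells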;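 further: 0% = median of negative and 100% = median of positive control wells; the first replicate is given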
PABP FP inh: PABP poly(A) RNA binding inhibitors, primary screen, biochemical, fluorescence polarization, uHTS; inhibition, % at 35 µM; Polyadenylate-binding protein 1 (Homo sapiens), P11940; actives 1% (n = 290,000);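 active means 50% or more with normal probe brightness, or confirmed in later tests; inconclusive means above 50% with abnormal brightness, or retests that disagree; inactive means below 50% or failed in later tests; about a fifth of its hits are not listed in these tables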;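 further: calls also rest on retests at 20 µM and on dose response follow-up; controls were probe without protein and protein plus probe with vehicle; some compounds called inactive have numbers as strong as hits; many hits fall short of the cut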
Target sequence (P11940 whole entry, looked up): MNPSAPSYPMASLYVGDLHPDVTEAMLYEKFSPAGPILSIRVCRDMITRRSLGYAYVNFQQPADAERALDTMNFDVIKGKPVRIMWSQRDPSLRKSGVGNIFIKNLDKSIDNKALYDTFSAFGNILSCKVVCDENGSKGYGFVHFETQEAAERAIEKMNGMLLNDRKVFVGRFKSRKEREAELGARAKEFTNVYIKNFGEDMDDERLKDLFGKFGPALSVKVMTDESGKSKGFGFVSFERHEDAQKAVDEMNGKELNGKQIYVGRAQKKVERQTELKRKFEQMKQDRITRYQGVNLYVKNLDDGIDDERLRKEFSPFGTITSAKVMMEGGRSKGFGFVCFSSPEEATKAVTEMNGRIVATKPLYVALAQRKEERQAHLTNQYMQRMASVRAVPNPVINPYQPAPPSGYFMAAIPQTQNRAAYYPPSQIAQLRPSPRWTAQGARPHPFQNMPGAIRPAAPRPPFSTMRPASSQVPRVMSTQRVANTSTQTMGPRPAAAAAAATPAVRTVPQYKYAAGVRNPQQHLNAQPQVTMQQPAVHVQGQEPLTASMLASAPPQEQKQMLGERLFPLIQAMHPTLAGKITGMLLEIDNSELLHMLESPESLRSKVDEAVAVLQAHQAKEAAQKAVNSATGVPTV
MT1-MMP act inh: blockers of MT1-MMP proenzyme processing, primary screen, HT1080 RFP-PRO-GFP cells, GFP/RFP fluorescence | Matrix metalloproteinase-14 (Homo sapiens), P50281 | GFP/RFP ratio fluorescence, overnight; percent of plate control window, DMSO zero | GFP/RFP ratio change, % at 20 µM | actives 0.061% (n = 360,000) | AID 651647, 2012;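 active means GFP/RFP ratio change of at least 30% with cell ATP level not reduced by more than half and red fluorescence within 50% of control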; further: strong numbers were not always called active
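Read-out: GFP/RFP fluorescence ratio; Test system: RFP-PRO-GFP reporter HT1080 cells; Compound dosing: single-point 20 µM compound, 1% DMSO; Times: overnight compound exposure at 37 °C.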
HIV Env fusion: inhibitors of HIV-1 Env-driven cell-cell fusion, primary screen, HeLa-JRFL effector, CEM21 target cells, luciferase. actives 1.1% (n = 360,000). inhibition, % at 12.3 µM. AID 651610, 2012;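 active means mean replicate inhibition score of at least 50 and every replicate individually at or above 50; inconclusive means only one of the two criteria met; inactive means mean below 50 and not all replicates reaching 50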;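 further: 0% = plate neutral controls and 100% = maraviroc near 300 nM; one replicate is shown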
eIF4H inh retest: second read-out of eIF4H inh, no call of its own (marks repeat the call); inhibition, %; compound at 20 µM; confirmation average;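 mean of two retest wells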
PABP FP inh retest: further read-out of PABP FP inh, marked with its call; inhibition, %; compound at 20 µM; confirmation repeats;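 mean of two retest wells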
MT1-MMP act inh RFP: second read-out of MT1-MMP act inh, no call of its own (marks repeat the call); RFP signal change, %; measured here: RFP expression control read;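 0 = vehicle wells; hits needed this value within 50% of zero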
Numbers without * were called inactive; i = inactive; ? = inconclusive; . = no result given; & = joins results of further samples. Some of the compounds tested; count on the stated rates, not on these rows.

SMILES	UUG fidelity	Rce1 inhib	eIF4H inh	CSC inhib	PABP FP inh	MT1-MMP act inh	MT1-MMP act inh RFP	HIV Env fusion	others
O=C(CSc1ccc2ccccc2n1)c1ccccc1	1.0	i	4.7	-4.0	0.4	-5.5	-2.1	-18.1
COc1ccccc1-c1cccc([C@@H]2C[C@H]3[C@H](CON3C)CN2C(C)=O)c1	-5.7	.	.	.	.	-2.5	-1.6	-92.9
COc1ccccc1C(=O)Nn1cnnc1	-18.6	i	-2.4	6.8	-4.7	1.0	3.2	-14.2
Cc1ccc(NC(=O)CNNC(=O)c2cccc([N+](=O)[O-])c2)cc1[N+](=O)[O-]	-8.1	.	.	9.7	.	1.5	3.3	0.6
Nc1nc(CN2CCN(c3ccccn3)CC2)nc(Nc2ccc(Cl)cc2)n1	-5.6	i	-4.5	9.4	-15.6	4.7	-4.9	0.4
Cc1ccc2nc(/C(C#N)=C\c3ccc(Oc4ccc([N+](=O)[O-])cn4)cc3)[nH]c2c1	.	.	?	-4.6	42.2	-9.9	-3.9	-1.4
COC(=O)c1sccc1NC(=O)Nc1ccc(OC)c(OC)c1	-10.2	i	-2.6	-9.3	9.2	-4.4	2.2	-5.2
COC(=O)C1(C)Nc2ccccc2C(=O)N1c1ccccc1C (configuration not stated)	4.3	i	-0.9	-1.9	-0.3	-4.7	2.5	4.7
Cc1ccc(NC(=O)c2ccc(Br)o2)cc1S(=O)(=O)N(C)C	.	i	-1.2	-12.5	-9.9	2.3	-0.7	-3.7
CCOC(=O)N1CCN(C(=O)c2ccccc2N(C)S(C)(=O)=O)CC1	-14.5	i	3.0	-1.5	14.1	6.5	2.8	-27.4
c1csc(-c2nnc(Cc3cccc4ccccc34)o2)c1	-20.3	i	-0.5	-0.8	7.5	-0.7	-4.6	-172.5
CCSCc1nnc(SCC(=O)Nc2nc3ccccc3s2)n1C	-31.5	i	3.0*	-6.4	59.6*	-6.5	-6.9	.	eIF4H inh retest=69.9*;PABP FP inh retest=59.0*
Cc1ccccc1Cn1ccc(=NCc2ccccc2)cc1	.	i	-4.7	-0.2	-4.6	.	.	41.2
CC(C)Cc1cc(CN2CCC(CO)(Cc3ccccc3)CC2)[nH]n1	-20.7	i	-3.6	-1.5	-3.8	-0.7	1.6	1.3
CC1NC(=O)NC1CCCCCC(=O)Nc1ccc(F)c(Cl)c1 (configuration not stated)	.	i	2.9	1.6	10.3	4.0	-2.0	-3.3
CCN(CC)CCCN1C(=O)C(O)=C(C(=O)c2sc(C)nc2C)C1c1ccco1 (configuration not stated)	10.4	i	85.2	6.6	4.6	-10.9	-1.8	-67.5	eIF4H inh retest=2.4;PABP FP inh retest=19.9
Clc1ccc(/C=N/Nc2nn[nH]n2)cc1	-19.1	i	1.7	-10.0	-11.0	4.5	-1.0	11.4
COc1ccc(C(=O)N2CCC2)cc1S(=O)(=O)NCc1ccc(Cl)cc1	-17.5	.	.	-15.4	.	0.7	2.1	.
Cc1ccc(/C=C2/Sc3ccc(C(=O)N4CCN(c5ccccn5)CC4)cc3NC2=O)cc1	-8.4	i	?	12.0	?	-2.2	2.3	-0.9
CC(=O)c1c(C)n([O-])c2ccccc2[n+]1=O	-9.6	i	-6.7	-14.5	-2.7	-1.7	-1.9	-46.1
COc1ccccc1N1C(=O)c2ccccc2NC1c1cc(OC)c(OC)c(OC)c1 (configuration not stated)	-14.8	i	-5.9	-9.9	1.1	-2.1	2.9	-87.5
O=C(CCS(=O)(=O)c1ccc(Cl)cc1)Nc1nnc(-c2cccs2)o1	.	i	.	-23.2	.	1.6	1.1	.
O=[N+]([O-])c1ccc2c(c1)C(O)n1nc(-c3ccc(Cl)cc3Cl)nc1S2 (configuration not stated)	-16.0	i	-2.3	-8.6	-1.7	-1.6	-1.3	.
COc1ccc(Cn2c(CO)cnc2SCC(=O)Nc2cc(C)on2)cc1	-15.0	i	-6.5	-9.8	1.9	0.1	2.1	-1.6
CCCn1nc([N+](=O)[O-])c(C(C#N)c2nc3ccccc3o2)c(Cl)c1=O (configuration not stated)	.	i	2.0	79.2*	2.9	21.3	1.5	1.4

Additional compounds:
SMILES	UUG fidelity	Rce1 inhib	eIF4H inh	CSC inhib	PABP FP inh	MT1-MMP act inh	MT1-MMP act inh RFP	HIV Env fusion	others
O=C(O)c1ccc(/C=N/N2CCN(Cc3cccc4ccccc34)CC2)cc1	2.0	i	-1.6	-12.2	10.2	4.6	1.4	0.5
COc1ccc(-c2cc(CS(=O)(=O)c3ccccc3)on2)cc1	-14.0	i	-4.6	-15.3	-3.7	2.2	-0.2	-62.6
CN(C)C(CNC(=O)c1ccc(-c2ccccc2)cc1)c1ccccc1 (configuration not stated)	-9.6	i	-2.8	-3.0	14.4	-1.1	0.3	-5.8
CC(=O)c1ccc(-n2cc(-c3ccc(C(C)(C)C)cc3)[n+]3c2SCCC3)cc1	.	i	6.1	.	-9.3	-4.2	-25.8	2.8
CCCn1c(N)c(C(=O)COC(=O)COc2ccc(Cl)c(C)c2)c(=O)n(C)c1=O	6.2	.	.	.	.	3.3	1.4	-3.3
Cc1ccc(N(CC(O)COCc2ccco2)S(=O)(=O)c2ccc(C)cc2)cc1 (configuration not stated)	11.1	i	31.9	-12.8	9.9	-2.7	-2.1	-42.7
CCNc1c(NS(=O)(=O)c2ccc(Br)s2)c(=O)oc2ccccc12	-5.9	.	2.7	3.2	3.8	-0.9	-1.9	12.6
CCCC[C@@H]1CNC(=O)C(=O)N1CCCc1cc(OC)c(OC)c(OC)c1	-7.0	i	11.3	21.5	-1.0	-2.6	-0.4	23.7
Cc1cc(=S)cc(C)n1CCO	-8.0	i	-1.2	-15.5	-5.4	1.9	1.2	1.9
COc1cc(CNc2ccc3[nH]c(=O)[nH]c3c2)cc(Br)c1OCc1ccc(F)cc1	-23.5	i	-5.0	0.3	-3.2	-12.1	4.5	-6.8
O=C(COC(=O)Cn1cnc2ccccc21)NCCC1=CCCCC1	-6.6	.	8.7	-3.3	-1.3	3.5	3.0	19.5
CC(C)CNC(=O)COc1ccc2c3c(c(=O)oc2c1)CCC3	-14.0	i	0.8	0.8	0.3	2.8	-1.3	.
Cc1ccc(S(=O)(=O)N2CCCC2CNC(=O)C(=O)NCCN2CCOCC2)cc1 (configuration not stated)	-15.7	i	.	10.5	.	1.1	3.4	4.8
Cc1ccc(S(=O)(=O)Nc2cccc(-n3cnnn3)c2)cc1C	1.7	i	-10.7	1.7	-0.2	0.7	-1.8	8.7
CCN1CCCC1CNc1ncnc2c1[nH]c1ccc(F)cc12 (configuration not stated)	-6.2	i	6.3	-2.7	-7.6	-3.0	-8.0	.
Cc1ccccc1OCc1nnc(SCC(=O)Nc2ccc3nc(SCC(=O)NC(C)(C)C)sc3c2)n1C	-8.7	i	8.6	-15.9	-3.3	3.3	-25.5	.
CCOc1ccc(NC(=O)CN(C)c2ccc(S(=O)(=O)N3CCOCC3)cn2)cc1OCC	5.0	i	5.5	-22.1	14.3	3.2	1.5	.
CCCCCCOc1ccc(N2C(=O)CC(N3CCN(CCN=CC4C(=O)CC(C)(C)CC4=O)CC3)C2=O)cc1 (configuration not stated)	.	.	-11.3	2.0	3.7	5.1	2.5	11.8
CCOc1ccccc1NC(=O)NC1CCN(CC(=O)Nc2ccc3c(c2)OCCO3)CC1	-9.7	.	4.5	.	9.3	-3.6	-4.2	-5.5
Cc1cc(F)ccc1NS(=O)(=O)c1cccc2nsnc12	9.8	i	-4.9	11.8	4.7	1.3	0.5	2.9
CC(c1nccs1)N(C)C(=O)CCc1nnc(CCc2ccccc2)o1 (configuration not stated)	-15.3	i	-7.5	-0.8	-3.4	-2.0	1.7	-0.7
Cc1nnc(SCCN2CCOCC2)c2nn(-c3ccccc3F)c(C)c12	-19.9	i	1.5	.	6.9	-4.2	0.4	.
CCCCOc1ccc(/C=C/C(=O)NCCc2nc3ccccc3[nH]2)cc1	-6.4	i	-4.6	.	-3.4	-7.3	-12.6	-52.3
CN(CC(=O)Nc1ccc(Cl)cc1)C(=O)Cc1c(F)cccc1Cl	-4.5	i	-6.9	0.5	-0.3	0.0	1.9	0.9
CN(CCC(=O)Nc1ccc2c(c1)OCO2)Cc1ccccc1	.	i	-2.1	-0.8	-0.3	3.2	3.3	.

Going on with the list.
SMILES	UUG fidelity	Rce1 inhib	eIF4H inh	CSC inhib	PABP FP inh	MT1-MMP act inh	MT1-MMP act inh RFP	HIV Env fusion	others
Cc1ccc(N=Cc2ccc(O)cc2O)cc1F	7.6	i	53.5*	60.2	66.9*	-39.3	16.9	-28.0
COCCCNC(=O)CSC1=Nc2ccccc2C2=NC(Cc3c[nH]c4ccccc34)C(=O)N12 (configuration not stated)	0.5	i	-6.2	-6.0	-5.7	-9.4	0.4	12.1
CCOc1cc(-c2nnn(CC(=O)N3CCCCC3)n2)ccc1OC	-5.0	i	-14.2	-3.0	-3.3	0.1	2.0	7.6
O=C(COc1ccc(Cl)cc1)NCCCNC(=O)c1cnccn1	-12.2	i	-10.1	.	4.4	1.9	0.5	19.8
C[C@@H]1CN([C@@H](C)CO)C(=O)c2cccc(NC(=O)C3CCOCC3)c2O[C@H]1CN(C)S(=O)(=O)c1ccc(Cl)cc1	-0.4&0.1	.	.	-23.8	.	-1.0	-2.7	-11.9
CC(=O)NC(NC(=S)N1CCCCCC1)C(Cl)(Cl)Cl (configuration not stated)	1.2	i	-11.2	4.6	9.4	1.5	4.9	9.3

Among those listed so far, these contain bromine.
SMILES	UUG fidelity	Rce1 inhib	eIF4H inh	CSC inhib	PABP FP inh	MT1-MMP act inh	MT1-MMP act inh RFP	HIV Env fusion	others
Cc1ccc(NC(=O)c2ccc(Br)o2)cc1S(=O)(=O)N(C)C	.	i	-1.2	-12.5	-9.9	2.3	-0.7	-3.7
CCNc1c(NS(=O)(=O)c2ccc(Br)s2)c(=O)oc2ccccc12	-5.9	.	2.7	3.2	3.8	-0.9	-1.9	12.6
COc1cc(CNc2ccc3[nH]c(=O)[nH]c3c2)cc(Br)c1OCc1ccc(F)cc1	-23.5	i	-5.0	0.3	-3.2	-12.1	4.5	-6.8

Grouped by structure: the entries above containing two or more sulfur atoms (5)
SMILES	UUG fidelity	Rce1 inhib	eIF4H inh	CSC inhib	PABP FP inh	MT1-MMP act inh	MT1-MMP act inh RFP	HIV Env fusion	others
CCSCc1nnc(SCC(=O)Nc2nc3ccccc3s2)n1C	-31.5	i	3.0*	-6.4	59.6*	-6.5	-6.9	.	eIF4H inh retest=69.9*;PABP FP inh retest=59.0*
O=C(CCS(=O)(=O)c1ccc(Cl)cc1)Nc1nnc(-c2cccs2)o1	.	i	.	-23.2	.	1.6	1.1	.
CCNc1c(NS(=O)(=O)c2ccc(Br)s2)c(=O)oc2ccccc12	-5.9	.	2.7	3.2	3.8	-0.9	-1.9	12.6
Cc1ccccc1OCc1nnc(SCC(=O)Nc2ccc3nc(SCC(=O)NC(C)(C)C)sc3c2)n1C	-8.7	i	8.6	-15.9	-3.3	3.3	-25.5	.
Cc1cc(F)ccc1NS(=O)(=O)c1cccc2nsnc12	9.8	i	-4.9	11.8	4.7	1.3	0.5	2.9

Screens: PubChem BioAssay, several laboratories
